Compound activity (PubChem)
TRPML1 agonist: activates the human TRPML1 channel | actives 0.12% (n = 410,000) | AID 624414 | TRPML1-expressing cells, Ca2+ dye fluorescence, FDSS; host cell line not named in the record; reference of the full effect not given here | activation, % (concentration not given with the values) | Q9GZU1; in the data active = activation above about 50%; inconclusive = about 30% to 50%; inactive = below about 30%; note: 0% is about no effect; the text of the record puts the active cut at 80%
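In this qHTS format, compounds were pin-transferred onto Ca8-dye-loaded TRPML1-DL cells induced with Tet overnight, and intracellular Ca2+ fluorescence was recorded kinetically for 110 s after a 10 s baseline. A subsequent 4uM final 54-4 (EC80) addition followed by a second 110 s read served as the antagonist phase.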
PINK1 modulator: modulators of PINK1 expression. PINK1 immunofluorescence, high-content cytometry, 24 h. Potency, µM (titrated, usually from 76.6 µM), without a hit: at the top dose activation (PINK1 increase), hits mostly activators. actives 0.2% (n = 410,000). AID 624263; active = well fitted activation curve with a large enough effect; inconclusive = small, poorly fitted or top-dose-only effect; inactive = flat fitted curve, though single readings scatter; cell line not stated here;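 note: potency is the fitted concentration of half-maximal effect; % of control where 0% means no effect; nearly all actives have a fitted effect of over 65% in size; a mitochondrial uncoupler was the plate control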
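Cells are seeded, rested 12 hours, then given compound at five concentrations or DMSO for 24 hours. After fixation, blocking and antibody staining, PINK1 amount and mitochondrial localization are scored; CCCP serves as control.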
TRPML1 blocker: inhibitors of human TRPML1 channel. Q9GZU1. TRPML1-inducible cells, Ca2+ dye fluorescence, FDSS; active compounds read low; inhibition of EC80 agonist-evoked calcium signal. activity change, negative = inhibition, % (test concentration not listed). actives 0.02% (n = 390,000). AID 624415; in the data active means activity change below about -50%; inconclusive means about -30% to -50%; inactive means above about -30%;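 note: stimulus is agonist 54-4 at its EC80 concentration; % is set by controls: 0 for no effect and ±100 for the full control effect; compound concentration not given in the record; the text of the record puts the active cut at -80%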
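Calcium fluorescence in TRPML1-DL cells induced overnight with Tet: a 110 s read after compound pin addition, then a 110 s antagonist read after challenge with 54-4 at 4 uM final (EC80).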
TRPV1 potentiator: enhances activation of the human vanilloid receptor TRPV1; actives 0.02% (n = 320,000); TRPV1-expressing cells, Fluo-8 calcium influx, capsaicin EC20 potentiation; host cell line not named in the record; control for the full effect not named in the record; potentiation, % at 8.33 µM; AID 540277; active means potentiation above 80%; inconclusive means 30% to 80%; inactive means below 30%; note: 0% is about no effect
Target sequence (Q8NER1 whole entry, looked up): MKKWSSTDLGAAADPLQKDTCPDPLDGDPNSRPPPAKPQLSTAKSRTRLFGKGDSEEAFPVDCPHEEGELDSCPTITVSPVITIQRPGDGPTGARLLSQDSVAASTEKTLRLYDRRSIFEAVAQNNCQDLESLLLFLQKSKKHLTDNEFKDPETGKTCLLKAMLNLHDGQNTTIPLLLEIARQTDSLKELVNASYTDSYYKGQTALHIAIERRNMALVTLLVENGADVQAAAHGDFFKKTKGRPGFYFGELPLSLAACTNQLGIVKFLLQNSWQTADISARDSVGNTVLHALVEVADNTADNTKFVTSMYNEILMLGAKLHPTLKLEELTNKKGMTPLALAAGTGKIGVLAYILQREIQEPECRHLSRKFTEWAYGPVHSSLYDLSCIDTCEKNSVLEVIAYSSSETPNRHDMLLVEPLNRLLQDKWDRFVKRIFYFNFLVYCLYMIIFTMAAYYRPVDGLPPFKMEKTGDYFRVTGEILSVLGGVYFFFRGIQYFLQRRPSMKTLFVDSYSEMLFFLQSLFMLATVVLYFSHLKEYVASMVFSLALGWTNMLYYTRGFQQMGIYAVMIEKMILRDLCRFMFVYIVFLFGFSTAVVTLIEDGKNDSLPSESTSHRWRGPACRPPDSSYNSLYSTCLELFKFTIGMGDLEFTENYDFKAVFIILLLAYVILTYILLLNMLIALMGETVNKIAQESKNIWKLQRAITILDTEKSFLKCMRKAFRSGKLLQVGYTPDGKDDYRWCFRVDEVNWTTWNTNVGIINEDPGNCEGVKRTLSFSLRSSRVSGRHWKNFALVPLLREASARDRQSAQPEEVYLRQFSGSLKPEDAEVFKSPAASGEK
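Cells expressing TRPV1 were dye-loaded with Fluo-8 and read kinetically: 10 s baseline, 3 min after compound (agonist portion), then 2 min after EC20 capsaicin (allosteric enhancer portion). Calcium-bound dye fluorescence at 480/520 nm.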
Menin-MLL FL inh: menin-MLL binding inhibition, fluorescein peptide; Fluorescence polarization, fluorescein-MLL peptide displacement from menin; FP activity change, % at 61.4 µM; 290,000 tested, under 10 active; inconclusive = falling polarisation curve, or a change in total fluorescence; inactive = total fluorescence flat and polarisation flat or rising; no compound was filed as active; the % refers to the polarisation; negative = inhibition;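 note: % of control where 0% means no effect; inhibitors lower the polarisation; unlabelled MLL peptide was the positive control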
ClpP mod: qHTS Assay for Activators of ClpP; actives 1.9% (n = 340,000); Potency, µM (top dose mostly 57.5 µM), without a hit: at the top dose activity change, negative = active; ATP-dependent Clp protease proteolytic subunit (Bacillus subtilis (strain 168)), P80244; purified B. subtilis ClpP, FRET peptide cleavage, 20 min; active = well fitted falling curve with a large enough effect; inconclusive = small, poorly fitted or top-dose-only effect; inactive = no such curve, though single readings can be large or run the other way; note: potency is the fitted concentration of half-maximal effect; the source files actives as falling curves though it sought activators and does not explain the sign; nearly all actives have a fitted effect of over 65% in size; many hits overshoot -100%
Target sequence (P80244 whole entry, looked up): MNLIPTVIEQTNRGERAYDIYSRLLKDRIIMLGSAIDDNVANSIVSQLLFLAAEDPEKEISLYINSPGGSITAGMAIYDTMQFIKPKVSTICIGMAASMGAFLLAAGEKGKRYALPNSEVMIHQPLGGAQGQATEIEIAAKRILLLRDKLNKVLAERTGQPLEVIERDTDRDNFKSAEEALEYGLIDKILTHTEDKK
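FRET quenching reversal measured ClpP activation: 10 microg/mL B. subtilis ClpP at pH 8 with the FRET-FV decapeptide, read at 430 nm after 320 nm excitation. The 20-min minus 0-min signal was scaled between DMSO/no-enzyme wells and ADEP (5.8 microM final).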
Sfp PPTase inh: Sfp phosphopantetheinyl transferase inhibition | Q9F4F7 | Biochemical Sfp PPTase activity, qHTS | Potency, µM, without a hit: max response, negative = inhibition, usual class: inhibitors | actives 3.5% (n = 310,000) | AID 1490; active = well fitted inhibition curve with a large enough effect; inconclusive = small, poorly fitted or top-dose-only effect, or another doubt; inactive = no such curve, though single readings can be large or run the other way;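 note: the enzyme is Sfp with the accession as filed and its product quenches rhodamine fluorescence; potency is the fitted concentration of half-maximal effect; 0% = enzyme reaction without inhibitor and -100% = no enzyme wells; top concentration of the series not given in the record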
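With Hepes-Na pH 7.6 buffer containing 10 mM MgCl2, Sfp (15 nM) modified BHQ-2-YbbR (12.5 uM) using rhodamine-CoA (5 uM). Two reads 30 minutes apart at 525/598 nm yielded each well's rate.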
The depositor's hits bear a star; u = inconclusive; x = no result given; [ ] = dose if it differs, or a comment.

SMILES	TRPML1 agonist	PINK1 modulator	TRPML1 blocker	TRPV1 potentiator	Menin-MLL FL inh	ClpP mod	Sfp PPTase inh
CN(Cc1nc(-c2ccccn2)no1)S(=O)(=O)c1ccccc1	-0.4	1.6%	-7.0	-11.5	-0.2	-6.2%	-2.8%
Cn1ncc([N+](=O)[O-])c1C(=O)N1CCOCC1	0.1	0.5%	44.2	3.7	1.9	-3.5%	22.8%
c1ccc([C@H]2CNCCN2CCc2cccc3ccccc23)cc1	0.7	-1.2%	10.0	x	x	-1.3%	x
CC(C)(C)S(=O)(=O)c1cnc(-c2cnccn2)nc1N	1.4	2.9%	0.4	-10.2	8.0	x	9.0%
O=C(COC(=O)CSc1ccccc1)NC1CCS(=O)(=O)C1 (stereo not drawn)	0.1	0.5%	4.2	x	x	-1.3%	x
O=C(CNC(=O)c1cccs1)NCC(=O)OCc1c(F)cccc1Cl	-0.6	1.0%	-6.4	-4.4	-5.5	x	22.2%
CCc1nc(-c2ccccc2)c2ccccn12	-0.6	0.0%	24.5	u	u	x	28.2µM*
COc1ccc(CN(CCC(C)C)S(=O)(=O)c2ccccc2Br)c(OC)c1	18.3	0.1%	-2.2	x	x	-1.7%	x
COc1ccc(C(=O)/C=C/Nc2ccc([N+](=O)[O-])cc2)cc1	1.4	u	1.4	-3.6	x	-15.3%	-28.6%
O=C(COc1ccccc1)OCC(=O)c1ccc(O)cc1O	3.3	0.4%	7.2	4.6	x	-1.9%	x
O=C(CC1SC(=NCC2CCCO2)NC1=O)Nc1cccc2ccccc12 (stereo not drawn)	-0.4	1.1%	19.2	u	-1.0	x	20.2%
C=CCNC(=O)CSc1nc2sc3c(c2c(=O)n1CCCOC)CCC3	0.5	2.2%	22.6	-6.9	-1.5	-4.3%	8.2%
O=C(/C=C/c1ccccc1)c1ccc2c(c1)OCCCCO2	1.5	-1.8%	2.1	-26.5	2.8	0.9%	-9.2%
NC(=O)N/C=C1\CCCOC1=O	-0.7	-0.4%	0.7	x	x	0.4%	x
CN(C)c1ccc(CNC(=O)c2ccc3nc(Cc4ccccc4)oc3c2)cc1	1.0	0.0%	-17.8	x	x	3.4%	x
CC1(C)CC(=O)C(C2(O)C(=O)Nc3ccccc32)CO1 (stereo not drawn)	0.6	0.5%	4.8	-5.6	-0.6	x	18.5%
NS(=O)(=O)c1ccc(CNC(=O)c2ccc(Br)o2)cc1	0.4	-1.9%	-3.7	-4.7	3.8	-0.9%	3.3%
CCCNC(=O)N1[C@H](c2ccc(C)s2)[C@@H](C)C(=O)[C@@H](C)[C@@H]1c1ccc(C)s1	-0.4	-0.5%	-20.7	x	x	-2.6%	x
CC(C)CCN1CCN(CCCc2ccccc2)CC1CCO (stereo not drawn)	0.0	3.0%	5.5	-1.5	1.3	-0.5%	4.7%
CCC(C)(C)n1nnnc1C(c1cc(OC)ccc1OC)N1CCN(Cc2ccccc2)CC1 (stereo not drawn)	0.1	-2.4%	11.6	3.4	-0.3	x	u
O=C(CN1C(=O)NC2(CCCCCC2)C1=O)c1ccc2c(c1)OCCO2	1.0	-0.5%	-4.0	-5.8	0.1	-4.0%	15.9%
CCN1CCN(S(=O)(=O)c2ccc(OC)cc2)CC1	0.2	-1.7%	6.5	-2.0	-0.1	-2.2%	11.1%
O=C(NCc1ccccc1Cl)C1CCCN(C(=O)Nc2ccc(F)cc2)C1 (stereo not drawn)	-0.3	1.7%	-2.3	-8.3	0.7	x	13.2%
Cc1csc(NC(=O)c2c(O)c3cccc4c3n(c2=O)CCC4)n1	x	x	x	3.8	1.3	x	11.4%
CC1(C)C2CCC(C2)C1(C)NC(=O)C[N+](C)(C)C (stereo not drawn)	1.3	-0.4%	-6.2	-6.5	-0.3	0.4%	9.7%
Continued.
SMILES	TRPML1 agonist	PINK1 modulator	TRPML1 blocker	TRPV1 potentiator	Menin-MLL FL inh	ClpP mod	Sfp PPTase inh
O=C(Nc1c(F)c(F)c(F)c(F)c1F)C1CCCCC1	-0.8	2.3%	-10.4	16.3	-2.0	0.9%	10.0%
Cc1ccccc1C(=O)NC(NCC1CCCO1)C(Cl)(Cl)Cl (stereo not drawn)	-1.0	-0.5%	-0.2	10.5	6.4	-0.3%	10.7%
CCn1c(SCC(=O)c2cc(OC)ccc2OC)nnc1C1CC1	-0.5	-0.1%	1.1	0.0	3.2	4.6%	-17.4%
CCCCN(C(=O)COC(=O)c1nc2nc(C)cc(C)n2n1)C1CCS(=O)(=O)C1 (stereo not drawn)	0.8	0.7%	-8.6	-0.9	x	-2.8%	x
Cc1cc(C)n(CCc2nc(-c3cc4ccccc4o3)cs2)n1	1.2	1.3%	-14.2	-14.6	1.8	-0.3%	-27.1%
CN(C)S(=O)(=O)c1ccc(-c2csc(N/N=C/c3ccco3)n2)cc1	0.9	8.5%	1.6	-12.9	4.1	x	-2.5%
CCOC(=O)C1CCCCN1Cc1cn(C)nc1-c1ccccc1F (stereo not drawn)	-0.3	-0.5%	14.8	9.1	3.4	x	6.4%
CCCn1c(=O)c(C(=O)NCC2CCCO2)c(O)c2ccccc21 (stereo not drawn)	0.0	3.6%	-11.9	7.9	4.2	x	10.4%
Cc1ccc(OCc2ccc(C#N)cc2)c(C(=O)c2cc(C#N)c(=O)n(C3CC3)c2)c1	0.1	9.4%	38.1	-6.1	-0.4	2.5%	11.6%
Cc1ccc(C(=O)Nc2c(N)nc(SCC(=O)Nc3cc(C)on3)[nH]c2=O)cc1	-0.1	3.2%	-9.2	-2.4	x	-2.0%	-6.8%
COc1ccc(C2(c3ccc(O)cc3O)CC(c3ccccc3Cl)NC(=S)N2)cc1 (stereo not drawn)	-0.4	-0.3%	6.2	-7.5	1.7	x	-3.4%
CCCc1nc2c(s1)CCc1onc(-c3ccc(Cl)cc3)c1-2	0.8	3.8%	-14.9	7.3	x	-0.8%	x
CCN(CC)c1ccc(NC(=O)c2ccccn2)cc1S(=O)(=O)Nc1ccccc1OC	0.1	0.2%	8.9	1.4	x	-2.9%	x
COc1cccc(N2CCN(C3CC(=O)N(c4ccc(Cl)cc4)C3=O)CC2)c1 (stereo not drawn)	-1.0	1.4%	17.7	-1.5	4.7	1.3%	8.4%
COc1ccc(/C=C/C2=NN(C)C(=O)CC2)cc1	-0.1	0.0%	25.8	-17.5	3.1	x	9.9%
O=[N+]([O-])c1ccc2c(c1)-c1ccccc1C2O (stereo not drawn)	-0.8	-1.4%	5.9	x	x	0.2%	x
CC(C)n1c(SCC(=O)NC2CC2)nnc1C1CC1	0.2	-1.1%	1.8	9.6	x	-0.1%	1.4%
CCC(C)(C)C1CCc2[nH]nc(C(=O)NCc3ccccn3)c2C1 (stereo not drawn)	-1.3	0.7%	2.8	-63.8	x	-0.6%	x
COc1ccc(NC(=O)/C(C#N)=C/c2ccc(-c3ccc(Cl)c(C(=O)O)c3)o2)cc1	0.3	0.5%	34.0	19.8	-0.6	-2.0%	4.7%
O=S(=O)(/N=C(/c1ccccc1)N1CCCCCC1)c1ccccc1	1.1	-1.4%	-3.4	-0.5	-1.6	-1.5%	17.3%
COc1ccc(C)cc1C1=Nc2ccccc2C1(C)C	2.2	7.8%	-0.9	-6.5	-1.5	-4.4%	-4.2%
CCOc1ccc(NC(=O)c2ccc3c(c2)C(=O)N(Cc2ccncc2)C3=O)cc1	0.6	4.9%	-11.0	-12.7	x	x	x
CCOc1cc(/C=C2/C(=N)N3OC(C)=CC3=NC2=O)ccc1OC	-0.8	-0.1%	12.2	-6.6	18.5	x	18.4%
Cc1cccc(CS(=O)(=O)c2ncc(Cl)c(C(=O)Nc3ccc(F)cc3)n2)c1	0.3	-1.8%	84.3	1.2	x	2.1%	u
Cc1ccc(NC(=O)Cn2c(C)cc(C)c(C#N)c2=O)cc1	-0.8	0.5%	-9.1	x	x	-15.8%	x
Next records:
SMILES	TRPML1 agonist	PINK1 modulator	TRPML1 blocker	TRPV1 potentiator	Menin-MLL FL inh	ClpP mod	Sfp PPTase inh
COc1ccc(OC)c(C2C(C(=O)c3ccc(C)o3)=C(O)C(=O)N2CCCN2CCOCC2)c1 (stereo not drawn)	0.2	-0.7%	24.7	x	x	0.3%	x
CCOC(=O)C1=C(C)NC(SCC(N)=O)=C(C#N)C1c1ccccc1 (stereo not drawn)	-0.1	3.4%[38.3 µM]	7.5	x	0.6	-7.0%	14.4%
Cc1ccc(Cl)cc1Nc1nn2c(=O)c3ccc(C(=O)NCc4cccs4)cc3nc2s1	2.3	1.5%	0.8	x	x	-13.3%	x
CC(=O)NCCNC(=O)C1Cc2c(-c3ccc(Cl)cc3)ccnc2O1 (stereo not drawn)	0.8	-1.0%	-4.9	x	x	-9.7%	x
Cc1cnc(Nc2nc3ccccc3o2)nc1C(=O)Nc1cccc(C(F)(F)F)c1	-1.1	u	-13.6	9.6	-0.8	-3.0%	15.0%
O=C(COc1ccc(Br)cc1)NCCCNC(=O)c1cccnc1	0.0	0.7%	3.8	2.2	1.3	-2.9%	4.6%
O=C(COC(=O)C1CC1)NC(=O)c1ccccc1	0.2	-1.1%	3.4	2.8	x	-2.2%	x
O=C(CCC1CCCCC1)NCCN1C2=NC[C@H](Cc3ccccc3)N2C[C@H]1Cc1ccc(O)cc1	1.6	1.2%	-10.8	-13.7	-3.9	-5.4%	-17.9%
COc1ccc(C)cc1NC(=O)c1cc2c(=O)n3ccccc3nc2n1C	-0.1	1.2%	4.8	-0.8	0.5	x	26.7%
O=C(O)C(Cc1ccccc1)N1CCS(=O)(=O)CC1 (stereo not drawn)	-0.2	-0.2%	12.8	22.4	0.3	x	-4.2%
CC/C(=N/Nc1cccc(Cl)c1)c1cnnc(SC)n1	0.5	20µM*	2.2	2.1	-2.9	-5.6%	-7.3%
Cc1nc(SCC(=O)c2c(N)n(C3CC3)c(=O)[nH]c2=O)[nH]c(=O)c1CCO	0.3	0.5%	-5.6	-7.1	x	1.3%	x
O=C(/C=C/c1cccc(Oc2ccccc2)c1)N1CCOCC1	0.2	-0.3%	11.9	-11.4	2.4	-2.4%	3.6%
CCc1cc2c(NC(Cc3ccccc3)C(=O)O)nc(C)nc2s1 (stereo not drawn)	x	0.8%	x	19.8	1.2	-0.2%	7.4%
COc1ccc(C(=O)N(C(C)C)C(C)C)c(OC)c1	2.9	-2.5%	48.3	4.1	0.4	-0.5%	14.2%
COC(=O)c1c(NC(=O)C(=O)NCC2CCCO2)sc2c1CC(C)(C)OC2 (stereo not drawn)	-0.4	0.1%	22.3	0.9	4.3	-4.5%	13.5%
Cc1ccccc1CNC(=O)Cc1ccc(NC(=O)N2CCCCc3ccccc32)cc1	0.1	-1.2%	28.9	x	x	-0.7%	x
